# HIV Env fusion: inhibitors of HIV-1 Env-driven cell-cell fusion, primary screen, HeLa-JRFL effector, CEM21 target cells, luciferase | inhibition, % at 12.3 µM | actives 1.1% (n = 360,000) | AID 651610, 2012;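 active = mean replicate inhibition score of at least 50 and every replicate individually at or above 50; inconclusive = only one of the two criteria met; inactive = mean below 50 and not all replicates reaching 50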;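 note: 0% = plate neutral controls and 100% = maraviroc near 300 nM; one replicate is shown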
# Yeast UUG start: modulators of yeast start codon fidelity, primary screen, whole organism, S. cerevisiae, single point, plate reader. S. cerevisiae UUG-firefly luciferase reporter, luminescence/redox ratio. activity score, % at 18.7 µM. actives 0.13% (n = 350,000);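 active = replicate mean at a twofold rise or more, about +100% in these data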;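 note: firefly luciferase made from a UUG start codon reports start codon fidelity; reporter light over untreated wells divided by growth signal over untreated wells; some hits fall short of that in this replicate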
# An asterisk follows results filed as active; ? = inconclusive; & = joins results of further samples; [ ] = remark or other dose.
HIV Env fusion	Yeast UUG start	Molecule
5[16.7 µM]	5	CC(=O)N(C)C[C@H]1Oc2ncc(-c3cccc(F)c3)cc2C(=O)N([C@@H](C)CO)C[C@@H]1C
-42[16.7 µM]	13	C[C@@H]1CCCCO[C@H](CN(C)Cc2ccccc2)[C@H](C)CN([C@H](C)CO)C(=O)c2cc(NC(=O)Nc3ccc(F)cc3)ccc2O1
33[16.7 µM]	0	Cc1ccc(S(=O)(=O)N(C)C[C@@H]2OCCCC[C@H](C)Oc3ccc(NC(=O)C4CCCCC4)cc3C(=O)N([C@H](C)CO)C[C@H]2C)cc1
10[16.7 µM]	-12	CC(C)c1cn(CC[C@@H]2CC[C@H](NC(=O)Nc3cc(Cl)cc(Cl)c3)[C@@H](CO)O2)nn1
0[16.7 µM]	-9	C[C@@H]1CN([C@@H](C)CO)C(=O)c2cc(NC(=O)Nc3ccc4c(c3)OCO4)ccc2O[C@H]1CN(C)Cc1ccc2c(c1)OCO2
4[16.7 µM]	-8	CO[C@H]1CN(C)C(=O)c2cc(NC(C)=O)ccc2OC[C@H](C)N(C(=O)CN(C)C)C[C@@H]1C
16[16.7 µM]	-8	O=C(Nc1ccc2c(c1)[C@H]1C[C@@H](CC(=O)N3CCc4ccccc4C3)O[C@@H](CO)[C@H]1O2)Nc1ccccc1F
-4[16.7 µM]	-15	Cc1noc(C)c1S(=O)(=O)N(C)C[C@H]1OCCCC[C@@H](C)Oc2ccc(NC(=O)Nc3ccc4c(c3)OCO4)cc2C(=O)N([C@@H](C)CO)C[C@H]1C
-19[16.7 µM]	13	Cc1noc(C)c1S(=O)(=O)Nc1ccc2c(c1)CC(=O)N([C@@H](C)CO)C[C@@H](C)[C@H](CN(C)S(=O)(=O)c1cn(C)cn1)O2
-13[16.7 µM]	19	O=C(C[C@@H]1CC[C@@H](NC(=O)C2CCC2)[C@H](CO)O1)NC1CCCCC1
-15[16.7 µM]	-3	O=C(Nc1ccc(F)cc1)N[C@@H]1CC[C@H](CCn2cc(C3(O)CCCC3)nn2)O[C@@H]1CO
0[16.7 µM]	19	C[C@@H]1CN([C@H](C)CO)C(=O)c2cc(NC(=O)Cn3cnnn3)ccc2O[C@@H]1CN(C)C(=O)Nc1ccc(F)cc1
2[16.7 µM]	0	C[C@@H]1CN([C@H](C)CO)C(=O)c2cc(NS(=O)(=O)c3ccccc3)ccc2O[C@H]1CN(C)Cc1ccc(Oc2ccccc2)cc1
-80[16.7 µM]	18	C[C@H](O)C#Cc1ccc2c(c1)O[C@H](CN(C)C(=O)Nc1ccccc1)[C@H](C)CN([C@@H](C)CO)S2(=O)=O
2[16.7 µM]	-5	CCCNC(=O)Nc1ccc2c(c1)C(=O)N(C)[C@@H]1CC[C@@H](CC(=O)NCC3CCCCC3)O[C@@H]1CO2
-5[16.7 µM]	13	CN1C(=O)c2cc(NC(=O)Cc3cccs3)ccc2OC[C@@H]2O[C@H](CC(=O)NCC3CC3)CC[C@H]21
-8[16.7 µM]	16	COc1ccc(S(=O)(=O)N(C)C[C@H]2OCCCC[C@@H](C)Oc3ccc(NS(=O)(=O)c4c(C)noc4C)cc3C(=O)N([C@H](C)CO)C[C@@H]2C)cc1
22[16.7 µM]	8	C[C@@H]1CCCCO[C@@H](CN(C)Cc2ccc(C(=O)O)cc2)[C@H](C)CN([C@@H](C)CO)C(=O)c2cc(NS(=O)(=O)c3cccs3)ccc2O1
27[16.7 µM]	-3	Cc1noc(C)c1S(=O)(=O)Nc1ccc2c(c1)CC(=O)N([C@@H](C)CO)C[C@H](C)[C@@H](CN(C)C(=O)Nc1ccc(F)cc1)O2
13[16.7 µM]	-10	COc1ccc(NC(=O)N(C)C[C@H]2Oc3c(NS(C)(=O)=O)cccc3C(=O)N([C@H](C)CO)C[C@H]2C)cc1

# Filtered by structure: the compounds so far containing a thiophene ring, fused or not.
HIV Env fusion	Yeast UUG start	Molecule
-5[16.7 µM]	13	CN1C(=O)c2cc(NC(=O)Cc3cccs3)ccc2OC[C@@H]2O[C@H](CC(=O)NCC3CC3)CC[C@H]21
22[16.7 µM]	8	C[C@@H]1CCCCO[C@@H](CN(C)Cc2ccc(C(=O)O)cc2)[C@H](C)CN([C@@H](C)CO)C(=O)c2cc(NS(=O)(=O)c3cccs3)ccc2O1

# Going on with the list:
HIV Env fusion	Yeast UUG start	Molecule
8[16.7 µM]	3	CO[C@H]1CN(C)C(=O)c2cc(NS(=O)(=O)c3ccccc3Cl)ccc2OC[C@H](C)NC[C@@H]1C
2[16.7 µM]	21	C[C@H](O)C#Cc1ccc2c(c1)O[C@H](CN(C)C(=O)C1CCCCC1)[C@H](C)CN([C@@H](C)CO)S2(=O)=O
7[16.7 µM]	-6	COCc1cn(CC[C@@H]2CC[C@H](NC(=O)c3ccccc3)[C@H](CO)O2)nn1
5[16.7 µM]	-11	CC(C)NC(=O)N[C@@H]1C=C[C@@H](CC(=O)N2CCCCC2)O[C@H]1CO
6[16.7 µM]	11	C[C@@H]1CN([C@@H](C)CO)C(=O)c2cc(NS(C)(=O)=O)ccc2O[C@@H](C)CCCCO[C@@H]1CN(C)Cc1ccncc1
16[16.7 µM]	1	O=C(C[C@H]1C=C[C@H](NC(=O)Cc2ccccn2)[C@H](CO)O1)NCCCN1CCOCC1
13[16.7 µM]	4	O=C(C[C@@H]1CC[C@H](NC(=O)c2ccccc2)[C@@H](CO)O1)NCc1ccncn1
2[16.7 µM]	-3	C[C@@H]1CN([C@H](C)CO)C(=O)c2cc(Br)cnc2O[C@@H]1CN(C)Cc1ccccc1
5[16.7 µM]	-2	C[C@@H]1CN([C@H](C)CO)C(=O)c2cccc(NC(=O)NC3CCCCC3)c2O[C@H]1CN(C)C(=O)NC1CCCCC1
27[16.7 µM]	5	C[C@@H]1CN([C@H](C)CO)S(=O)(=O)c2ccc(C#CC3CC3)cc2O[C@H]1CN(C)Cc1ccccc1F
-9[16.7 µM]	-14	COc1ccc(NC(=O)N(C)C[C@@H]2Oc3ccc(NC(=O)Nc4ccc(C(F)(F)F)cc4)cc3CC(=O)N([C@@H](C)CO)C[C@H]2C)cc1
-61[16.7 µM]	-7	C[C@H]1CN([C@@H](C)CO)C(=O)Cc2cc(NC(=O)c3ccncc3)ccc2O[C@@H]1CN(C)Cc1ccncc1
-7[16.7 µM]	11	C[C@@H]1CN([C@@H](C)CO)C(=O)CCCn2nncc2CO[C@@H]1CN(C)Cc1ccc2c(c1)OCO2
-5[16.7 µM]	49	CCCc1cn(CC[C@@H]2CC[C@H](NS(=O)(=O)c3ccccc3Cl)[C@H](CO)O2)nn1
2[16.7 µM]	7	CC(C)NC(=O)Nc1ccc2c(c1)C(=O)N(C)[C@H]1CC[C@@H](CC(=O)NC3CCCCC3)O[C@H]1CO2
-34[16.7 µM]	-5	C[C@@H]1CCCCO[C@@H](CN(C)C(=O)c2ccccc2)[C@@H](C)CN([C@H](C)CO)C(=O)c2cc(NC(=O)Nc3cccc4ccccc34)ccc2O1
0[16.7 µM]	-11	C[C@@H]1CN([C@H](C)CO)C(=O)c2cc(-c3cccnc3)cnc2O[C@H]1CN(C)C(=O)C1CCC1
14[16.7 µM]	1	C[C@@H]1CN([C@@H](C)CO)S(=O)(=O)c2ccc(C#Cc3ccccc3)cc2O[C@H]1CN(C)C(=O)Nc1ccccc1
8[16.7 µM]	0	CNC[C@H]1Oc2cc(C#Cc3ccc(F)cc3)ccc2S(=O)(=O)N([C@H](C)CO)C[C@@H]1C
-4[16.7 µM]	-6	CO[C@@H]1CN(C)C(=O)c2cc(NS(C)(=O)=O)ccc2OC[C@H](C)N(C(=O)CC2CC2)C[C@@H]1C
-7[16.7 µM]	-6	C[C@H](CO)N1C[C@H](C)[C@H](CN(C)C(=O)NC2CCCCC2)OCCCC[C@H](C)Oc2ccc(NC(=O)NC3CCCCC3)cc2C1=O
21&-14[16.7 µM]	4&38	C[C@H](CO)N1C[C@H](C)[C@@H](CN(C)C(=O)c2cnccn2)Oc2cc(Br)ccc2S1(=O)=O
25[16.7 µM]	-9	CO[C@H]1CN(C)C(=O)c2ccc(NS(C)(=O)=O)cc2OC[C@@H](C)N(C(=O)C2CCOCC2)C[C@@H]1C
5[16.7 µM]	21	O=C(N[C@H]1CC[C@H](CCn2cc(-c3ccccc3)nn2)O[C@H]1CO)c1cnccn1
-8[16.7 µM]	3	C[C@H](CO)N1C[C@H](C)[C@H](CN(C)Cc2ccncc2)Oc2ncc(C#CC(C)(C)O)cc2C1=O
11[16.7 µM]	12	CC(C)NC(=O)N(C)C[C@@H]1Oc2cc(C3=CCCCC3)ccc2S(=O)(=O)N([C@@H](C)CO)C[C@@H]1C
0[16.7 µM]	5	COc1ccc(S(=O)(=O)N(C)C[C@H]2Oc3ccc(NC(=O)C4CCCCC4)cc3CC(=O)N([C@H](C)CO)C[C@@H]2C)cc1
-18[16.7 µM]	7	C[C@@H]1CN([C@H](C)CO)C(=O)c2cc(C#CCN(C)C)cnc2O[C@@H]1CN(C)C(=O)CCN1CCCCC1
-20[16.7 µM]	9	Cc1ccc(S(=O)(=O)Nc2ccc3c(c2)CC(=O)N([C@H](C)CO)C[C@H](C)[C@@H](CN(C)S(=O)(=O)c2cn(C)cn2)O3)cc1
14[16.7 µM]	11	NCC[C@@H]1CC[C@@H](NS(=O)(=O)c2ccc(Cl)cc2)[C@H](CO)O1
-26[16.7 µM]	-10	Cc1noc(C)c1NC(=O)Nc1ccc2c(c1)CC(=O)N([C@H](C)CO)C[C@H](C)[C@H](CN(C)C(=O)NC1CCCCC1)O2
-34[16.7 µM]	-18	CCNC(=O)C[C@H]1C=C[C@H](NS(=O)(=O)c2ccc(C)cc2)[C@@H](CO)O1
-26[16.7 µM]	4	Cc1noc(C)c1S(=O)(=O)Nc1ccc2c(c1)CC(=O)N([C@@H](C)CO)C[C@H](C)[C@H](CN(C)S(=O)(=O)c1ccc(F)cc1)O2
9[16.7 µM]	-1	Cc1noc(C)c1NC(=O)Nc1ccc2c(c1)CC(=O)N([C@@H](C)CO)C[C@@H](C)[C@H](CN(C)C(=O)NC(C)C)O2
-14[16.7 µM]	-2	CN(C)CC(=O)N[C@H]1CC[C@H](CCn2cc(C3CC3)nn2)O[C@@H]1CO
-4[16.7 µM]	-15	C[C@@H]1CN([C@@H](C)CO)C(=O)Cc2cc(NC(=O)c3ccncc3)ccc2O[C@@H]1CN(C)C(=O)NC1CCCCC1
?	15	C[C@@H]1CCCCO[C@@H](CN(C)CC2CCCCC2)[C@H](C)CN([C@@H](C)CO)C(=O)c2cc(NC(=O)c3ccccc3)ccc2O1
-1[16.7 µM]	-2	CO[C@@H]1CN(C)C(=O)c2ccc(NC(=O)Nc3ccccc3)cc2OC[C@H](C)N(CC2CC2)C[C@@H]1C
9[16.7 µM]	-7	CCC(=O)Nc1ccc2c(c1)C(=O)N(C)[C@H]1CC[C@@H](CC(=O)N[C@H](C)c3ccccc3)O[C@H]1CO2
2[16.7 µM]	7	CN1C(=O)c2cc(NC(=O)c3ccc(F)cc3)ccc2OC[C@H]2O[C@@H](CC(=O)NC3CCC3)CC[C@@H]21

# Compound profiles (already shown). Screens in order: HIV Env fusion | Yeast UUG start
# C[C@@H]1CN([C@@H](C)CO)C(=O)Cc2cc(NC(=O)c3ccncc3)ccc2O[C@@H]1CN(C)C(=O)NC1CCCCC1 in the list: -4[16.7 µM] | -15
# CN1C(=O)c2cc(NC(=O)c3ccc(F)cc3)ccc2OC[C@H]2O[C@@H](CC(=O)NC3CCC3)CC[C@@H]21 in the list: 2[16.7 µM] | 7
# CCNC(=O)C[C@H]1C=C[C@H](NS(=O)(=O)c2ccc(C)cc2)[C@@H](CO)O1 in the list: -34[16.7 µM] | -18
# Cc1noc(C)c1S(=O)(=O)Nc1ccc2c(c1)CC(=O)N([C@@H](C)CO)C[C@H](C)[C@H](CN(C)S(=O)(=O)c1ccc(F)cc1)O2 in the list: -26[16.7 µM] | 4
# CN(C)CC(=O)N[C@H]1CC[C@H](CCn2cc(C3CC3)nn2)O[C@@H]1CO in the list: -14[16.7 µM] | -2

# (continued)
HIV Env fusion	Yeast UUG start	Molecule
11[16.7 µM]	4	COc1cccc(S(=O)(=O)N[C@H]2CC[C@H](CC(=O)NCc3ccc(Cl)cc3)O[C@H]2CO)c1
-13[16.7 µM]	-11	CC(C)NC(=O)N(C)C[C@@H]1OCc2cn(nn2)CCCC(=O)N([C@H](C)CO)C[C@@H]1C
-11[16.7 µM]	-10	C[C@H]1CN([C@@H](C)CO)C(=O)c2cc(NS(=O)(=O)c3cn(C)cn3)ccc2O[C@H]1CN(C)CC1CC1
13[16.7 µM]	7	C[C@@H]1CN([C@@H](C)CO)C(=O)c2cc(NC(=O)c3ccncc3)ccc2O[C@H]1CN(C)Cc1ccccc1
9[16.7 µM]	11	O=C(C[C@@H]1C[C@@H]2c3cc(NC(=O)NC4CCCCC4)ccc3O[C@@H]2[C@@H](CO)O1)NCc1ccccn1
-5[16.7 µM]	0	CS(=O)(=O)N1[C@H](C#N)[C@@H](c2ccc(-c3ccccc3F)cc2)[C@H]1CO
7[16.7 µM]	-3	C[C@@H]1CCCCO[C@H](CN(C)S(=O)(=O)c2ccc(Cl)cc2)[C@@H](C)CN([C@H](C)CO)C(=O)c2cc(NC(=O)Nc3ccc(C(F)(F)F)cc3)ccc2O1
-6[16.7 µM]	-15	O=C(C[C@H]1C[C@@H]2c3cc(NC(=O)NC4CCCCC4)ccc3O[C@@H]2[C@H](CO)O1)NCc1cccnc1
19[16.7 µM]	3	C[C@H](CO)N1C[C@H](C)[C@H](CN(C)Cc2ccc3c(c2)OCO3)Oc2ncc(/C=C/c3ccccc3)cc2C1=O
1[16.7 µM]	-22	CNC[C@@H]1Oc2ccc(NC(=O)C3CC3)cc2C(=O)N([C@@H](C)CO)C[C@H]1C
-141[16.7 µM]	-11	C[C@H]1CN([C@@H](C)CO)C(=O)c2cc(-c3cccnc3)cnc2O[C@H]1CN(C)C(=O)C1CCC1

# Not all compounds are listed; the hit share may differ from the screen's.
